Vif A3G = inhibitors of Vif binding to APOBEC3G peptide, primary screen, biochemical, TR-FRET, GST-Vif 1-94, biotin-A3G peptide, dose response retest (AID 1117319). actives 0.57% (n = 260,000). one-dose inhibition, %; IC50 in µM for titrated hits. TR-FRET GST-Vif / biotin-A3G peptide binding; higher % means a stronger effect; test concentration not given here; strong numbers were not always called active;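 active means above the screen mean plus three standard deviations and confirmed in dose response; inconclusive means results disagree or hit not tested in dose response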;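 further: Vif residues 1-94 fused to GST binding biotinylated APOBEC3G peptide 110-148; 0% = full assay without inhibitor and 100% = GST in place of GST-Vif; retest series ran down from 100 µM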
HNF4A DNA FP = change in binding of human HNF4 alpha to DNA; P41235; HNF4a-FITC DNA binding, fluorescence polarization, 1 h; activity change, % at 10 µM; actives 0.3% (n = 360,000); AID 1224865; in the data active means activity change above about 30%, passing the limit was not always enough;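 further: controls were the assay level and a saturating level of protein; the project sought stronger binding though the title names inhibitors; some compounds called inactive have numbers as strong as hits; positive values seem to mean higher polarization but the record does not say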
Target sequence (P41235 whole entry, looked up): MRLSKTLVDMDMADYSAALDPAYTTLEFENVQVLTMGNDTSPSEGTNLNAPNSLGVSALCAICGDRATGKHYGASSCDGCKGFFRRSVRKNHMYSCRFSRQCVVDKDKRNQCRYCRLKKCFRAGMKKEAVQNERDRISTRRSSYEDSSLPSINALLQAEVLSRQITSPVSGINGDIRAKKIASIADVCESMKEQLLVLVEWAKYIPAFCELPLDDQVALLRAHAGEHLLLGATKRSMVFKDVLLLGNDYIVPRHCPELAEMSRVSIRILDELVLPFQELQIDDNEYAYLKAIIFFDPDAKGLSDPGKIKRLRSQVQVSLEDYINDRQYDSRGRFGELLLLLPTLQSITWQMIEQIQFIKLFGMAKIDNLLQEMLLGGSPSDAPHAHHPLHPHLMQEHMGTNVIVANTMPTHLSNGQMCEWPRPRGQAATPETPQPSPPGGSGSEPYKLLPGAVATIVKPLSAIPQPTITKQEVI
FGF22 binding = binders of recombinant human FGF22 by thermal shift; Q9HCT0; SYPRO orange fluorescence; percent of sucrose octasulfate shift, DMSO zero; calls only at 9.99 µM; actives 1.5% (n = 340,000); AID 651658;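 active means melting point raised past a set limit in the mean and every replicate; inconclusive means no clear call; three in four hits are not shown here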
Target sequence (Q9HCT0 whole entry, looked up): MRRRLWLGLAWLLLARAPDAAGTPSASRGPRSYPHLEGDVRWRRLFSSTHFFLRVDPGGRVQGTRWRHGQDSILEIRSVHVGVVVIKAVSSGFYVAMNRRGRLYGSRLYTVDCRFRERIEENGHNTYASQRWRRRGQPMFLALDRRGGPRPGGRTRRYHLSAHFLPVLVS
Ecoli rRNA inh = selective bacterial rRNA inhibition in E. coli. E. coli WT GFP vs humanized-ribosome RFP mutants, fluorescence, 24 h; active compounds read low; DMSO median 0, no signal -100. GFP signal change (wild-type ribosome), % (no concentration beside the values). actives 1.6% (n = 350,000). AID 720706;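 active means significant combined selectivity score with lowered wild-type GFP, culture density cut under 30%, mutant RFP and density less affected; inactive means any of these conditions unmet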; further: one replicate is shown; some compounds called inactive have numbers as strong as hits
ALR inh = blocks human ALR sulfhydryl oxidase activity; purified ALR, DTT oxidation, H2O2 HRP-luminol luminescence; P55789; actives 3.8% (n = 290,000); inhibition, % (concentration not given with the values);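 active means mean and each replicate at 75% or more; inconclusive means only one of the two met; inactive means neither met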;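 further: stock transfer was 7.5 nL into about 7.5 µL; 0% = neutral wells and 100% = wells with inactivated enzyme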
Target sequence (P55789 whole entry, looked up): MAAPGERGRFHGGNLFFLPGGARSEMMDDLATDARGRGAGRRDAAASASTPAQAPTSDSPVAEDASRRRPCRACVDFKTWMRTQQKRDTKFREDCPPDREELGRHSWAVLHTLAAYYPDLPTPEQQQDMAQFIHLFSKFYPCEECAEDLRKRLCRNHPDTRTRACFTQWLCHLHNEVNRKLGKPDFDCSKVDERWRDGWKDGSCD
Ecoli growth = E. coli growth inhibition; Escherichia coli growth, OD600, 23 h; active compounds read low; OD600 absorbance (no concentration beside the values); actives 0.21% (n = 330,000); AID 1053175;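 active means OD600 absorbance below the run mean of sample wells minus 3.6 SD, in any replicate, cut at about 0.56 in these data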;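 further: stock transfer was 300 nL into about 60 µL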
MLL AF4-AF9 inh = blocks AF4 peptide binding to human AF9; AlphaScreen, biotin-AF4 peptide binding to FLAG-AF9; AID 651704; P42568; actives 0.47% (n = 350,000); inhibition, % at 10 µM;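 active means every replicate reaching a set inhibition limit, whatever the replicate mean, cut at about 25% in these data; inconclusive means mean inhibition reaches that limit but some replicates miss it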;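 further: 0% = plate neutral control median and 100% = total signal loss; the record names both 10 and 1 µM as test concentration; the first replicate is given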
Ecoli rRNA inh OD600 = second read-out of Ecoli rRNA inh, no call of its own (marks repeat the call); OD600 change, %; measured here: OD600 growth;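 optical density of the mix in the first replicate; 0 = DMSO median and -100 = no signal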
Ecoli rRNA inh RFP = also measured in Ecoli rRNA inh; calls as there; RFP signal change, %; measured here: RFP humanized mutant strains;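 first replicate; 0 = DMSO median and -100 = no signal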
The depositor's hits bear a star; i = inactive; ? = inconclusive; . = no result given; + = active, no number.

SMILES	Vif A3G	HNF4A DNA FP	FGF22 binding	Ecoli rRNA inh	Ecoli rRNA inh OD600	Ecoli rRNA inh RFP	ALR inh	Ecoli growth	MLL AF4-AF9 inh
CC(C)(C)S(=O)N1Cc2cc(C(=O)O)nc(-c3cccc(-c4cc5ccccc5o4)c3)c2[C@H]1CCO (stereo partly drawn)	.	-4.4	i	4	-1	7.9	.	.	2.1
CCc1nc(CN2CCCC(C(=O)Nc3ccc(-c4cccc(OC)c4)cc3)C2)c(C)[nH]1 (stereo not drawn)	2%	1.9	i	0	-5	5.8	.	.	-1.2
Cc1cc(C)nc(SCC(=O)N(C)CC(=O)Nc2ccccc2Br)n1	0%	3.1	.	2	9	0.8	-10	0.64	-1.8
CCc1cccc(CC)c1NC(=O)CN1CCc2cc(OC)c(OC)cc2C1	-3%	1.4	.	.	.	.	-13	0.67	.
COc1cccc(S(=O)(=O)N[C@@H]2C=C[C@H](CC(=O)NCc3ccccc3)O[C@H]2CO)c1	.	.	i	1	5	6.1	.	.	-1.5
O=C(NCc1ccco1)c1ccc(CS(=O)(=O)Cc2ccc(F)cc2)o1	26%	-1.0	.	.	.	.	-2	.	.
C=CCN(C(=O)CNC(=O)c1ccco1)C(C(=O)NC1CCCCC1)c1ccccc1F (stereo not drawn)	2%	-5.2	.	.	.	.	3	0.69	.
Brc1ccc(-c2csc(N/N=C/c3ccco3)n2)cc1	?	-3.8	i	-38*	-26*	-3.4*	-5	.	11
CC(=O)c1ccc(S(=O)(=O)N(C)CCCC(=O)N(C)Cc2ccccc2F)cc1	.	-0.6	.	-3	-4	4.4	-6	0.66	-6.6
C[C@H]1CN([C@@H](C)CO)C(=O)c2cccc(NC(=O)Nc3ccccc3)c2O[C@H]1CN(C)Cc1ccc(Oc2ccccc2)cc1	.	.	i	5	-12	-3.8	.	.	0.3
Cc1ccc(S(=O)(=O)c2c(N)n(CCN3CCOCC3)c3nc4ccccc4nc23)cc1C	-278%	0.0	.	.	.	.	-6	0.73	.
CCOC(=O)c1[nH]c2ccccc2c1NC(=O)CN1CCCCC1	-5%	2.4	.	.	.	.	7	0.76	.
O=C(CSc1n[nH]c(-c2ccccc2O)n1)N1CCOCC1	-6%	-0.3	i	-1	-8	1.5	13	0.73	-2.1
C[C@H]1CN([C@@H](C)CO)C(=O)c2cc(NS(=O)(=O)c3ccccc3)ccc2O[C@H]1CN(C)C(=O)Nc1ccc2c(c1)OCO2	.	.	i	2	3	0.4	.	.	-2.8
Cn1c(SCC(=O)NCc2ccccc2)nc2ccccc21	32%	1.4	.	.	.	.	-13	0.67	.
O=C(CCNC(=O)c1ccccc1Cl)Nc1nc2ccc(F)cc2s1	-1%	-1.7	+	3	-15	-10	.	0.69	0.1
O=C(NCCC1CCCCN1S(=O)(=O)c1ccccc1)C(=O)NCC1CCCO1 (stereo not drawn)	0%	-2.4	i	0	3	-2.8	-4	0.7	-1.7
COc1ccc(NC(=O)Nc2nnc([C@@H]3C[C@H](O)[C@@H](CO)O3)s2)cc1	.	-1.1	i	14	18	1.7	.	.	-3.2
O=C1c2ccccc2-c2cc(Br)ccc2NC1O (stereo not drawn)	-129%	3.7	i	2	7	5.1	.	.	8.5
CCOC(=O)/C=C/CN(C(=O)OC(C)(C)C)S(=O)(=O)N1CC=CC1	8%	-4.3	i	20	18	2.6	9	.	-2.0
CN(CC(=O)Nc1cccc(S(=O)(=O)N2CCCC2)c1)Cc1ccccc1	.	-2.6	i	-8	-12	-0.9	5	0.68	-2.2
O=C(Nc1ccccc1N1CCCC1)c1ccc(Br)o1	46µM*	-2.6	.	.	.	.	98*	0.64	.
Cc1noc(C)c1S(=O)(=O)N(C)C[C@@H]1OCCCC[C@@H](C)Oc2ccc(NS(C)(=O)=O)cc2C(=O)N([C@H](C)CO)C[C@@H]1C	.	.	i	2	7	-0.4	.	.	-14
COc1cc2[nH]c3c(=O)n4c(nc3c2cc1OC)SCCC4	-3%	0.2	i	2	13	-3.1	-5	0.74	-3.2
C=CCNC(=O)COC(=O)c1ccc(Cl)c(S(N)(=O)=O)c1	1%	2.9	i	7	10	1.6	.	0.63	-2.4

Look-ups from the entries so far:
`C[C@H]1CN([C@@H](C)CO)C(=O)c2cccc(NC(=O)Nc3ccccc3)c2O[C@H]1CN(C)Cc1ccc(Oc2ccccc2)cc1` @ Ecoli rRNA inh = 5
`COc1cc2[nH]c3c(=O)n4c(nc3c2cc1OC)SCCC4` @ HNF4A DNA FP = 0.2
`CC(=O)c1ccc(S(=O)(=O)N(C)CCCC(=O)N(C)Cc2ccccc2F)cc1` @ ALR inh = -6

(listing goes on)
SMILES	Vif A3G	HNF4A DNA FP	FGF22 binding	Ecoli rRNA inh	Ecoli rRNA inh OD600	Ecoli rRNA inh RFP	ALR inh	Ecoli growth	MLL AF4-AF9 inh
CO[C@H](C(=O)N(C)C[C@H]1OCc2ccccc2-c2ccccc2C(=O)N([C@@H](C)CO)C[C@H]1C)c1ccccc1	.	.	i	-1	1	-0.2	.	.	-2.1
CC1(C)CC2CC(C)(CN2C(=O)c2cc(-c3ccc(O)cc3)on2)C1 (stereo not drawn)	11%	-4.9	i	-11	-19	3.2	67	0.69	3.9
COc1cccc(-c2cnc3c(c2)C(=O)N([C@H](C)CO)C[C@@H](C)[C@H](CN(C)Cc2ccc(C(=O)O)cc2)O3)c1	.	.	i	4	10	-0.6	.	.	-3.7
O=P(O)(O)CCP(=O)(c1ccccc1)c1ccccc1	-3%	-2.5	.	.	.	.	-4	0.68	.
CSc1nc2cc(C)nn2c(-c2ccc(C(C)(C)C)cc2)c1C#N	-3%	-1.0	i	6	12	-2.8	-6	0.69	-6.2
C[C@@H]1CN([C@@H](C)CO)C(=O)c2cc(C#CCN(C)C)cnc2O[C@H]1CN(C)C(=O)c1cccnc1	.	.	i	1	-8	0.3	.	.	-5.3
O=C(O)CSc1cnc2ccccc2n1	-4%	2.1	.	4	0	1.1	-12	0.68	.
COc1ccc(OC)c(NC(=O)c2cc(S(=O)(=O)NCc3ccco3)ccc2F)c1	1%	3.5	.	.	.	.	-32	0.7	.
COc1ccc(-n2nnnc2SCC(=O)Nc2nnc(C)s2)cc1OC	-5%	-1.4	.	.	.	.	-8	0.68	.
Cc1ccc(-c2cc3nn(-c4ccccc4)c(N)c3c(=O)o2)cc1	1%	9.3	.	.	.	.	-5	0.69	.
CCn1cc([N+](=O)[O-])c(C(=O)Nc2nc(-c3ccc(C)c(C)c3)c(C)s2)n1	-2%	3.5	i	10	1	-3.1	-4	0.73	-7.8
CCn1cc(C(=O)NC2CCCc3c2cnn3-c2cccc(C)c2C)cn1 (stereo not drawn)	6%	-4.1	i	0	7	-0.8	6	.	-2.1
Cc1c(C(c2cccs2)c2c(C)n(C)n(-c3ccccc3)c2=O)c(=O)n(-c2ccccc2)n1C	-3%	-3.1	i	13	5	2.6	-18	0.67	-3.2
COc1cccc(C(=O)Nc2ccc3c(c2)C(=O)N(C)[C@H]2CC[C@H](CC(=O)NCC4CC4)O[C@@H]2CO3)c1	.	.	i	-2	-5	-1.0	.	.	-0.2
CC1Cc2cc(/C(O)=C3/C(=O)C(=O)N(Cc4ccco4)C3c3cccs3)ccc2O1 (stereo not drawn)	2%	-1.1	.	.	.	.	7	0.78	.
CCCC#Cc1ccc2c(c1)O[C@@H](CN(C)C(=O)c1cnccn1)[C@H](C)CN([C@@H](C)CO)S2(=O)=O	.	.	i	1	-9	-0.6	.	.	0.2
O=C(CSc1nccc2ccccc12)N1CCN(Cc2ccc3c(c2)OCO3)CC1	.	1.4	i	-4	1	11	-18	0.67	1.5
c1ccc(-n2nnnc2Oc2ccc(-c3nnco3)cc2)cc1	1%	-2.6	.	.	.	.	.	0.7	.
CN(C)C(=O)c1ccc(-c2ccc3c(c2)[C@H]2[C@H](CCN2C(=O)c2ccc(F)cc2)[C@@H](CO)N3C)cc1	.	.	i	0	6	-0.4	.	.	13
C/C=C/c1cccc(-c2nc(C(=O)NC3Cc4ccccc4C3)cc3c2[C@@H](CCO)N(C(C)=O)C3)c1	.	-3.6	i	0	0	7.5	.	.	1.6
COc1ccc(CCn2c(C)cc(C(=O)COC(=O)c3ccc(O)cc3O)c2C)cc1	5%	2.5	i	-3	8	13	.	.	-1.8
O=C(COc1ccc(F)cc1)N(Cc1cccs1)C1CCS(=O)(=O)C1 (stereo not drawn)	.	1.7	i	0	10	-4.6	-10	0.72	?
Cc1ccc(Cn2cc(CN3CC(N4CCN(Cc5ccccc5F)CC4)CS3(=O)=O)nn2)cc1 (stereo not drawn)	.	-2.5	i	-12	-2	4.1	.	.	-1.5
Cc1nnsc1C(=O)N1CCC(C(=O)c2ccccc2)CC1	.	-3.6	i	6	0	2.1	-4	0.71	-0.8
CO[C@H]1CN(C)C(=O)c2ccc(NC(C)=O)cc2OC[C@@H](C)N(CC2CCCCC2)C[C@@H]1C	.	.	i	-2	-8	2.4	.	.	5.6
(further entries)
SMILES	Vif A3G	HNF4A DNA FP	FGF22 binding	Ecoli rRNA inh	Ecoli rRNA inh OD600	Ecoli rRNA inh RFP	ALR inh	Ecoli growth	MLL AF4-AF9 inh
COc1ccc(CNC(=O)COC(=O)C2CC3C=CC2C3)cc1 (stereo not drawn)	-1%	1.4	.	.	.	.	2	0.66	.
Fc1ccc(Cn2nnc(-c3ccc(Cl)cc3)n2)cc1	-4%	0.1	i	-28	-40	-12	-2	0.7	-0.9
CCC(NC(=O)CC[C@H]1O[C@@H](n2cc(C)c(=O)[nH]c2=O)C[C@@H]1O)c1ccccc1 (stereo partly drawn)	.	1.1	i	6	10	1.8	.	0.71	-1.9
Cc1cc(C)c(C#N)c(N2CCN(Cc3ccc4c(c3)OCO4)CC2)n1	4%	-3.3	.	.	.	.	-5	0.69	.
O=C(c1cc([N+](=O)[O-])ccc1Cl)N1CCN(c2ccc([N+](=O)[O-])cc2)CC1	20%	0.1	i	-5	6	5.3	-4	0.64	-1.8
C[C@@H]1CN([C@@H](C)CO)C(=O)Cc2cc(NS(=O)(=O)c3ccc(F)cc3)ccc2O[C@@H]1CN(C)Cc1ccccc1	.	.	i	0	-24	3.1	.	.	-17
C[C@H](CO)N1C[C@H](C)[C@@H](CN(C)S(=O)(=O)c2ccccc2)OCCCC[C@H](C)Oc2ccc(NS(=O)(=O)c3ccccc3)cc2C1=O	.	.	i	-5	-5	2.5	.	.	3.5
O=C1[C@H]2[C@H](C=CC[C@H]2C(=O)N2CCOCC2)CCN1Cc1ccc(Cl)c(Cl)c1	.	.	i	-1	2	1.7	-16	.	-0.2
C[C@H](CO)N1C[C@H](C)[C@H](CN(C)C(=O)c2ccncc2)Oc2ncc(C3=CCCC3)cc2C1=O	.	.	i	0	-2	0.1	.	.	-3.0
CCC1CCCCN1CCCNC(=O)c1ccc2c(c1)NC(=O)CN2C (stereo not drawn)	.	3.2	i	11	10	3.0	-2	.	-3.2
CCCCNC(=O)Cn1cnc2sc(C)c(S(=O)(=O)N3CCN(c4ccccc4OC)CC3)c2c1=O	20%	-4.4	i	5	11	-3.7	-6	0.64	0.3

Compound activity deposited in PubChem BioAssay by several laboratories.

Only part of the results is shown, so the mix of outcomes need not match the whole.
